Compound activity from PubChem BioAssay.
VACV E9 pol inh: blocks vaccinia virus processive DNA synthesis; in vitro processive DNA synthesis, absorbance read-out; active compounds read low; some inactives read as strong as hits; normalized absorbance, % (no concentration beside the values); 0.94% of 46,000 active;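 active means replicate mean up to 90% and picked by the depositor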;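 further: 100% = median of the test wells of a plate; 100 nL library stock went into each well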
Active calls of the source: *; & = joins results of further samples. Only part of the results is shown (hit frequency here may not be typical).

#	SMILES	VACV E9 pol inh
1	O=C(Cn1ccnc1[N+](=O)[O-])NCCO	103
2	COc1ccc(CN(CCN(C)C)c2ccccn2)cc1	96
3	CC(=O)NCCCCCC(=O)O	100
4	CC1=NN(c2ccccc2)C(=O)C1	99&101
5	CC(C)Cc1ccc(C(C)C(=O)O)cc1 (centres undefined)	100
6	Cc1coc2c1C(=O)C(=O)c1c-2ccc2c1CCCC2(C)C	101
7	CN(C)CCCN1c2ccccc2Sc2ccccc21	97
8	COc1ccccc1OCC(O)COC(N)=O (centres undefined)	101
9	Nc1nccs1	93
10	Cc1nnc(NS(=O)(=O)c2ccc(N)cc2)s1	103
11	COc1ccc(-c2cc(=O)c3c(O)cc(O[C@@H]4O[C@H](CO[C@H]5O[C@H](C)[C@@H](O)[C@H](O)[C@@H]5O)[C@@H](O)[C@H](O)[C@H]4O)cc3o2)cc1O	97
12	CCOC(=O)c1ccc2nc(C(F)(F)F)nc(NCc3ccc(Cl)cc3)c2c1	102
13	CC1(C)O[C@@H]2C[C@H]3C4C[C@H](F)C5=CC(=O)C=CC5(C)[C@@]4(F)[C@@H](O)C[C@]3(C)[C@]2(C(=O)CO)O1 (some centres undefined)	100
14	NS(=O)(=O)c1cc2c(cc1C(F)(F)F)NC(Cc1ccccc1)NS2(=O)=O (centres undefined)	103
15	C1=NC(Cc2cccc3ccccc23)NC1 (centres undefined)	98
16	CCCOc1ccccc1-c1nc2n[nH]nc2c(=O)[nH]1	101
17	O=C1NCC2(CCN(CCc3ccccc3)CC2)O1	100
18	O=C(O)CN1C(=O)c2cccc3cccc(c23)C1=O	100
19	Nc1cc(-c2ccncc2)c[nH]c1=O	103
20	O=C(O)CCC/C=C\C[C@H]1C(=O)C[C@@H](O)[C@@H]1/C=C/[C@@H](O)CCc1ccccc1	100
21	Cc1onc(-c2ccccc2Cl)c1C(=O)N[C@@H]1C(=O)N2[C@@H]1SC(C)(C)[C@@H]2C(=O)O	100
22	c1ccc2c(CC3=NCCN3)cccc2c1	97&81

An excerpt from above in order of molar mass, high to low.
#	SMILES	VACV E9 pol inh
21	Cc1onc(-c2ccccc2Cl)c1C(=O)N[C@@H]1C(=O)N2[C@@H]1SC(C)(C)[C@@H]2C(=O)O	100
14	NS(=O)(=O)c1cc2c(cc1C(F)(F)F)NC(Cc1ccccc1)NS2(=O)=O (centres undefined)	103
20	O=C(O)CCC/C=C\C[C@H]1C(=O)C[C@@H](O)[C@@H]1/C=C/[C@@H](O)CCc1ccccc1	100
7	CN(C)CCCN1c2ccccc2Sc2ccccc21	97
15	C1=NC(Cc2cccc3ccccc23)NC1 (centres undefined)	98

Part of the list above, with each value named:
(19) Nc1cc(-c2ccncc2)c[nH]c1=O
  VACV E9 pol inh = 103

(21) Cc1onc(-c2ccccc2Cl)c1C(=O)N[C@@H]1C(=O)N2[C@@H]1SC(C)(C)[C@@H]2C(=O)O
  VACV E9 pol inh = 100
